Bioassay records (PubChem)
NPYLR7 agonist: agonists of mosquito NPYLR7 receptor, primary screen, cell-based, Aedes aegypti, calcium fluorescence, mosquito biting behavior; Aedes aegypti neuropeptide Y-like receptor 7 (NPYLR7); HEK293T NPYLR7/Galpha15, GCaMP6s calcium fluorescence; activation, % at 10 µM; 270,000 tested, 0.15% active; AID 1259423, 2018; in the data active means activation above about 40%;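 further: 0% = vehicle and 100% = reference agonist at the receptor; some compounds past the cut are filed as inactive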
NPYLR7 agonist max-min: second read-out of NPYLR7 agonist, no call of its own (marks repeat the call); activation, %; measured here: Max-Min RFU normalised activation; some inactives read as strong as hits;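 span of the calcium signal over five minutes; 0% = vehicle and 100% = native peptide agonist; compound fluorescence can raise it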
* hit, by the source's call; & = joins results of further samples.

SMILES,NPYLR7 agonist,NPYLR7 agonist max-min
CCN1CCN(C(=O)CCN(CCc2ccccc2)c2nc(C3CC3)nc3cc(Cl)ccc23)CC1,5,9
CS(=O)(=O)NC1CCc2cc(F)ccc21 (stereo unspecified),-8,529
CSC(=NS(=O)(=O)c1cccs1)Nc1ccc(Br)cc1F,1,-1
NC(=O)C1CC(C(=O)N2CCCC2c2ccccc2)=NN1c1ccccc1 (stereo unspecified),1,3
O=C(CC(NCCCO)C(=O)O)Nc1cccnc1 (stereo unspecified),12,10
Cn1cc(/C=C/C(=O)NC(c2ccc(F)cc2)c2cccs2)cn1 (stereo unspecified),8,4
CC1=C(C(=O)NCCCN(CC(C)C)CC(C)C)C2(CCCCC2)OC1=O,7,8
O=C(NN=Cc1ccc(OC(=O)c2ccccc2)cc1)c1cccc(O)c1,5,0
CC1(C(=O)NS(=O)(=O)c2cccc(Cl)c2)CCN1C(=O)CC(c1ccccc1)c1ccccc1 (stereo unspecified),-2,-9
Cc1cc(Br)ccc1CNC(=O)c1nccnc1C(N)=O,7,3
COC(=O)c1cc(C(=O)OC)cc(N2C(=O)CSC2c2ccccc2)c1 (stereo unspecified),-2,-7
CNC(=O)[C@H]1C[C@]2(CCCCN(C)C2=O)N(C(=O)NC2CCCC2)[C@H]1c1ccco1,-2,3
CCOC(=O)c1nn(-c2ccc(C)cc2)c(=O)cc1OCC(=O)Nc1cc(OC)ccc1OC,11,4
Cc1nc2c(c(NC(C)Cc3ccsc3)n1)CNC2 (stereo unspecified),10,7
CCC(C)C(NC(=O)c1ccc(Br)cc1)C(=O)Nc1nnc(-c2ccc(OC)cc2)s1 (stereo unspecified),7,1
Cc1[nH]c2ccc(Oc3ccccc3)cc2c(=O)c1C,10,7
COCCNc1oc2c(c1-c1ccc(OC)cc1)c(=O)oc1c(C)cccc12,-3,-5
CC(OC(=O)CC12CC3CC(CC(Br)(C3)C1)C2)C(=O)Nc1cccc(Cl)c1 (stereo unspecified),-3,-11
CC(C)(NCC(=O)N1CCCCC1)c1ccc2c(c1)OCO2,5,1
Cc1ccc2c(c1)C1(OCCCO1)C(=O)N2CC(=O)NN,16,7
CCOc1ccc(C2CC(c3ccc(C)cc3C)=NN2C(=O)CN2CCC3(CC2)OCCO3)cc1 (stereo unspecified),21,15
CCCc1nc(C(=O)N2Cc3cnc(C(C)(C)C)nc3C2)cs1,-5,-11
CCCCCCCCCCCC(=O)Nc1ccc(N2CCCC2)c(C(=O)NC(C)c2ccccc2)c1 (stereo unspecified),-4,-2
COc1cc(OC)cc(N2CCN(S(=O)(=O)c3ccccc3)C(C)C2=O)c1 (stereo unspecified),24,35
O=C(Nc1ccc(Oc2cccnc2)cc1)C1CCCCN1Cc1ccsc1 (stereo unspecified),17,10
S=C(C=C1SCCS1)c1ccc(Cl)cc1,1,0
C=CCn1c(=NC(=O)C2CCCN2S(=O)(=O)c2cccs2)sc2cc(C(=O)OC)ccc21 (stereo unspecified),-3,-5
C/C(=C\C=C(Cl)Cl)CSC(=Nc1ccccc1)NC#N,14,9
Cc1cc(NC(=O)CSc2nnc(C(C)N(C)C)n2-c2ccc(F)cc2)ccc1Br (stereo unspecified),-1,1
O=S(=O)(Nc1ccc(N2CCOCC2)cc1)c1cccc(Br)c1,1,5
COc1cccc(-n2nc(C(=O)NCc3cccnc3)c(=O)n(Cc3ccccc3Cl)c2=O)c1,11,14
C=C(C)COc1ccccc1C(=O)N(C)Cc1noc(CC)n1,0,-5
O=C(NN1C(=O)CC2(CCCC2)C1=O)c1cccs1,-12,-12
CC(=O)Oc1c(-c2ccc(NC(=O)c3ccc(Cl)cc3)cc2)c(-c2ccc(C)cc2)nn1-c1cccc(C)c1,-2,6
CCOc1ccc(C(=O)Nc2c(C)nc3cc(C)ccn3c2=O)cc1OCC,2,1
CCN1CCN(C(=O)Cn2c(=O)n(-c3ccc(C)c(C)c3)c(=O)c3ccccc32)CC1,34,35
CC(=O)CCc1oc2ccc(C)cc2c1-c1ccc(C)cc1,-8,0
O=S(=O)(Nc1cccc(I)c1)c1cccs1,1,0
COc1cc(NC(=O)c2cc(Cl)c[nH]2)c(C(=O)N(C)C)cc1OC,-5,-6
O=C(Nc1cccc(C(F)(F)F)c1)c1sc2cc(F)ccc2c1Cl,5,3
O=S(=O)(Nc1cccnc1N1CCOCC1)c1cccc(F)c1,-13,-13
CC(=O)Nc1ccc(/C(C)=N\Nc2nc(N3CCCC3)nc(N3CCCC3)n2)cc1,-3,-5
Cc1noc(C)c1CC(=O)N(C)Cc1cc(Br)ccc1F,4,4
Cc1cc(C)cc(-n2c(SCC(=O)Nc3nccs3)nc3c(c2=O)SCC3)c1,-5,-9
CC(=O)Nc1cccc(NC(=O)c2cnc3sc(C)cn3c2=O)c1,2,-2
CC(=O)N1CCn2nc(C(=O)NCc3snnc3C(C)C)cc2C1,8,5
O=C1CC2Sc3ccc(Cl)cc3N=C2N(Cc2ccccc2)N1 (stereo unspecified),7,3
CCc1nnc(NC(=O)c2ccccc2O)s1,-2&-6,-9&-8
CCCCc1ccc(C(=O)N(CC(=O)NCC(=O)Nc2ccc(OC)cc2)CC(C)C)cc1,18,19
Cc1noc(C)c1CCC(=O)NC(C)c1cnn(-c2ccccn2)c1C (stereo unspecified),16,10
CC(C)(C)C1CCC(NC(=O)CNC(=O)C2CC2(c2ccccc2)c2ccccc2)CC1 (stereo unspecified),0,-3
N#Cc1ccc(C(=O)N(CCCN2CCOCC2)c2nc3ccccc3s2)cc1,-6,-12
O=C(CN1CCN(c2ccc3c(c2)OCCO3)C1=O)NCCc1ccncc1,4,2
CC(C)(C)C(=O)Nc1ccnn1C1CCN(C(=O)c2n[nH]c3ccccc23)CC1,11,7
CN(C(=S)NCc1ccc2c(c1)OCO2)C1CCS(=O)(=O)C1 (stereo unspecified),0,0
O=C(NCCCOc1cccc([N+](=O)[O-])c1)C(c1ccccc1)C1CCCCC1 (stereo unspecified),-9,-14

Next section
SMILES,NPYLR7 agonist,NPYLR7 agonist max-min
COC(=O)c1ccc(NC(=O)c2cc(=O)c(OCc3ccccc3)co2)cc1,3,2
CCc1c2c([nH]c(=S)c1C#N)CCC2,-1,-2
CC(=NC(C)c1cccs1)c1c(O)[nH]c(=O)[nH]c1=O (stereo unspecified),2,9
CCCN1C(=O)COCc2cc(-c3ccccc3)ccc21,5,3
Cc1[nH]n(-c2ccc(Cl)cc2)c(=O)c1C=Nc1nn[nH]n1,-10,-16
COCCNC(=O)CN1CN(c2ccccc2)C2(CCN(C(=O)Nc3ccc(Cl)cc3)CC2)C1=O,6,17
O=C(Cc1csc(NC(=O)NC2CCCCC2)n1)Nc1ccccc1Oc1ccccc1,-6,-6
CN(CC1CCN(CCc2ccc(Cl)cc2)CC1)CC1CCOC(C)(C)C1 (stereo unspecified),6,0
CCOc1nc(-c2ccccc2F)n(-c2ccc(NC(=O)c3ccccc3Br)cc2)n1,-3,5
O=C(c1ccccc1Oc1ccccc1)N1CCC(c2ccc(F)cc2)CC1,2,-5
COC1CN(Cc2ccco2)C(=O)CN(S(=O)(=O)c2ccccc2)C1 (stereo unspecified),2,0
CCCCCCCC(=O)Nc1ccc(N2CCCC2)c(C(=O)NCc2ccccc2)c1,-6,-3
O=S(=O)(Nc1ccc(Br)cc1)c1ccc(F)cc1,3,42
Cc1ccc(NC(=O)CC(C)(C)C)cc1S(=O)(=O)N(C)C,-23,-24
Cn1cc(CN(Cc2cccc(-n3cccn3)c2)C2CC2)cn1,17,11
O=C(Cn1nnc2ccccc2c1=O)N1CCCc2cccc(F)c21,1,-2
Cc1nn(Cc2ccc(F)cc2)c(Cl)c1/C=C1/C(=O)Nc2ccccc21,-1,1
C=CCN(CC=C)C(=O)CSc1nnc(-c2cccnc2)n1-c1ccc(C)cc1C,3,7
COc1ccc(C(=O)N2C(C(=O)NCc3cccnc3)COC23CCN(C(=O)CC(C)C)CC3)cc1 (stereo unspecified),4,17
COc1ccc(C(=O)NC2CCCc3nc(-c4ccccc4)ncc32)o1 (stereo unspecified),19,6
CN(CC(=O)Nc1ccc(Br)cn1)Cc1ccc(Cl)cc1,1,1
CCOC(=O)[C@H]1[C@@H](O)C(=O)N(C)C12CCN(C(=O)C1CCCCC1)CC2,-4,2
COc1ccccc1CCN1CCCC(CN(C)C(=O)Cc2cn(C)c3ccccc23)C1 (stereo unspecified),4,1
CCCCN(C(=O)CCl)C(CC)c1nc2ccccc2c(=O)n1-c1ccc(F)cc1 (stereo unspecified),-3,-8
O=C(O)c1ccc(-c2cnn3cccnc23)s1,3,2
Cc1cccc(NC(=O)c2cc3ccccc3oc2=O)n1,-9,-13
O=C(OCCCN=C1NS(=O)(=O)c2ccccc21)c1ccccc1,7,5
Cn1c(O)c(N=NC(=O)c2ccc(O)cc2O)c2ccccc21,-4,-8
COCCN(CC(=O)N1CCc2sccc2C1c1ccc(Cl)cc1Cl)S(=O)(=O)c1c(C)cc(C)cc1C (stereo unspecified),10,20
CNC(=O)C1CCN(C(=O)COc2ccc(Oc3ccc(C)cc3)cc2)CC1,7,7
CN1CCC=C(C(=O)O)C1,-8,-12
CC(C)(C)C(C#N)NC(=O)c1cnc(-c2ncccn2)s1 (stereo unspecified),-20,-20
Cc1ccc(O)c(CN(Cc2cccnc2)Cc2ccc3c(c2)OCO3)n1,1,-1
Cc1ccc(C(=O)NCCCN2CCOCC2)cc1[N+](=O)[O-],-7,-15
Cc1ccc2[nH]c(CNC(=O)c3ccc(C#CC(C)(C)O)o3)nc2c1C,-2,-4
CCOC(=O)c1c(NC(=O)c2cc(OC)c(OC)c(OC)c2)sc2c1CCC(C)C2 (stereo unspecified),-6,-8
COC(=O)c1ccccc1C(=O)C[N+](=O)[O-],-11,-15
CC1Sc2ccc(C(=O)N(CCN3CCCC3)Cc3ccc(Cl)cc3)cc2NC1=O (stereo unspecified),8,7
COc1ccc(C(=O)N(Cc2cccc(C)c2)[C@@H]2CCCCC2NC(=O)[C@H]2CCCN2C(=O)Cc2cccs2)cc1 (stereo partly specified),16,15
COc1ccc(-c2cc(C(=O)N3CCN(C(=O)/C=C/c4ccccc4)CC3)c(C)n2-c2ccccc2)cc1,8,9
COC(=O)C1=C(C(=O)OC)C2C=CC1C1C3C4C=CC5C(C=C4)C5C3C21 (stereo unspecified),-1,-3
O=[N+]([O-])c1ccc(O)c(/C=N\Nc2nc3nonc3nc2Nc2ccc(I)cc2)c1,-8,-12
Fc1ccccc1C1c2[nH]c3ccccc3c2CCN1Cc1cnc(N2CCOCC2)s1 (stereo unspecified),1,-15
CCc1ccc(C2CC(=O)Nc3c2c(-c2ccccc2)nn3C)o1 (stereo unspecified),7,7
CC(C)(O)C#Cc1cccc(C(=O)N2CCC(Nc3ncccn3)CC2)c1,6,2
CCC(C(=O)N(C)Cc1ncccc1C)N1Cc2ccccc2C1=O (stereo unspecified),-1,-3
O=C(Nc1ccc2c(c1)CN(C(=O)c1n[nH]c3c1CCC3)CC2)c1ccccn1,4&1,-2&-2
O=C(NC1CCCCC1)c1cnc2n(c1=O)CCS2,2,0
NC(=O)c1c(NC(=O)Cn2nc(C(F)(F)F)c3c2CCCC3)sc2c1CCCC2,1,-2
O=c1c(Cl)c(Cl)cnn1Cc1cc(-c2cccs2)on1,7,3
C=CCn1c(SCC(=O)OC)nc2sc3c(c2c1=O)CCCC3,1,6
Fc1ccc(Cn2ncc3c2CN(c2ncnc4sccc24)C3)cc1,11,11

This is a subset; count on the stated rates, not on these rows.
